Bioassay records as filed in PubChem.
GIV-Gai inh = GIV-Galpha-i interaction inhibition. percent of control (FP), % (concentration not given with the values). Galpha-i3/FITC-GIV peptide fluorescence polarization, 90 min; stronger effect = lower value; scaled: aluminum fluoride 0%, vehicle 100%. 0.42% of 210,000 active. P08753;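 active = replicate mean at 85% of control or lower, very high polarization wells dropped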;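 also: wells of about 15 µL received 100 nL stock; the first replicate is given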
Target sequence (P08753 whole entry, looked up): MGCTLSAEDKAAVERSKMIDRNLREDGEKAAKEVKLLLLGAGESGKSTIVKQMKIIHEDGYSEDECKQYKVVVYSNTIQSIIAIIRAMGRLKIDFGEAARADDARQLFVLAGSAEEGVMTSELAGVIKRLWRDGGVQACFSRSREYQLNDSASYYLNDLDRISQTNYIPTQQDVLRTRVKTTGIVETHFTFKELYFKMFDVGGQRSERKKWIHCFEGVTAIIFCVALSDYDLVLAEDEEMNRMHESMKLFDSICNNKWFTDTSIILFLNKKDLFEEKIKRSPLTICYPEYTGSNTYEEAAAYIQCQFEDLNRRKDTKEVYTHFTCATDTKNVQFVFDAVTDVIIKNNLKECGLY
HCMV NEC inh = inhibitors of HCMV UL50-UL53 nuclear egress complex interaction. HTRF UL50-UL53 interaction, normalized percent inhibition. inhibition, % (concentration not given with the values). 0.15% of 190,000 active. AID 1918969;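 active = both replicates at 50% or more, plus weaker picks with an unusually low signal ratio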;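 also: stock transfer was 100 nL into about 20 µL; 0% = negative control wells and 100% = wells with untagged competitor protein; inactives centre near -12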
Sa growth 42C = blocks Staphylococcus aureus growth; AID 720641; 0.53% of 170,000 active; S. aureus RN4220 growth, OD600, 20 h, 42 °C; stronger effect = lower value; relative growth, % (concentration not given with the values);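 active = growth at 42 °C up to 50% and 20 or more points under that at 30 °C, or under 10% at both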;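 also: 300 nL library stock went into each well; scaled to the means of positive and negative controls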
Sa growth 42C second temp = also measured in Sa growth 42C; calls as there; relative growth, %; measured here: growth at 30 °C;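 optical density after 20 h as mean of two plates; 100% = untreated growth and lower means inhibition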
Starred values were filed as active, the others as inactive; . = no result given; & = joins results of further samples. Outcome played no part in choosing rows; about 0.85% have a hit in one of these screens.

The first 7 entries as a preview:
SMILES | GIV-Gai inh | HCMV NEC inh | Sa growth 42C | Sa growth 42C second temp
C=C(C)CNC(=S)Nc1cc(Cl)ccc1Sc1nncn1C | . | -17 | 100 | 90
CCOC(=O)c1oc2ccccc2c1CN1CCN(C(=O)c2ccccc2)CC1 | 105 | . | 97 | 77
COc1ccc(C2CC(=O)NC(NC(=S)NC(C)C)=N2)cc1 (stereo unspecified) | 107 | -24 | 90 | 81
COC(=O)c1cc2oc3ccccc3c2n1Cc1nc(-c2cccc(C)c2)oc1C | 102 | -15 | 136 | 88
COc1ccc(-c2noc(-c3cn(Cc4ccc(NC(=O)Cc5ccccc5)cc4)cn3)n2)cc1 | 104 | -19 | . | .
CC(C)COC(=O)N1CCCC1C(=O)O (stereo unspecified) | 103 | 8 | 66 | 94
O=C(CSc1nccc(C(F)(F)F)n1)c1cccnc1 | 113 | . | 86 | 88

The whole of this part, from the start:
SMILES | GIV-Gai inh | HCMV NEC inh | Sa growth 42C | Sa growth 42C second temp
C=C(C)CNC(=S)Nc1cc(Cl)ccc1Sc1nncn1C | . | -17 | 100 | 90
CCOC(=O)c1oc2ccccc2c1CN1CCN(C(=O)c2ccccc2)CC1 | 105 | . | 97 | 77
COc1ccc(C2CC(=O)NC(NC(=S)NC(C)C)=N2)cc1 (stereo unspecified) | 107 | -24 | 90 | 81
COC(=O)c1cc2oc3ccccc3c2n1Cc1nc(-c2cccc(C)c2)oc1C | 102 | -15 | 136 | 88
COc1ccc(-c2noc(-c3cn(Cc4ccc(NC(=O)Cc5ccccc5)cc4)cn3)n2)cc1 | 104 | -19 | . | .
CC(C)COC(=O)N1CCCC1C(=O)O (stereo unspecified) | 103 | 8 | 66 | 94
O=C(CSc1nccc(C(F)(F)F)n1)c1cccnc1 | 113 | . | 86 | 88
O=C(O)C1CC=C(Cl)CC1C(=O)NCC1OCCc2ccccc21 (stereo unspecified) | 96 | -5 | 100 | 89
CN1C(=O)CC(=O)N(C)c2cc(S(=O)(=O)N(C)Cc3ccccc3)ccc21 | 96 | -5 | -1.7* | -1.1*
COc1ccc(OC)c(S(=O)(=O)NCC(c2cccs2)S(=O)(=O)c2ccc(F)cc2)c1 (stereo unspecified) | 101 | . | 106 | 99
CCN(c1ccccc1)c1nnc(NC(=O)Nc2cccc(Br)c2)s1 | 97 | -12 | 125 | 92
CC(C)NCc1cc(=O)n2[nH]c(-c3ccccc3)nc2n1 | 100 | -11 | . | .
CCc1ccc(S(=O)(=O)/N=C2\C=CC(=O)c3ccccc32)cc1 | 5.6* | . | 56 | 28
CCN(CC)S(=O)(=O)c1cccc(C(=O)N2CCCC2=C(C#N)C#N)c1 | . | -37 | 123 | 91
CC1=C(c2ccc(C)cc2)S(=O)(=O)NC1=NC1CCN(Cc2ccccc2)CC1 | 101 | . | 89 | 82
Cc1nc(N(C)C)ncc1C(=O)NCCC(C)C | 107 | 5 | . | .
Cc1cc(NC(C)C)n2nc(C(F)(F)F)c(-c3ccc(F)cc3)c2n1 | 98 | -17 | . | .
O=C(NCc1ccccc1Cl)C1CCN(S(=O)(=O)N2CCCCC2)CC1 | 103 | 6 | 100 | 99
Cc1cccc(-n2ncc3c(Nc4ccc(-c5ccccc5)cc4)ncnc32)c1 | 103 | . | 90 | 77
O=C(O)Cc1sc(-c2ccccc2)nc1-c1ccccc1 | 105 | -25 | . | .
O=C1CSc2cc(S(=O)(=O)NN3CCOCC3)ccc2N1 | 107 | . | 122 | 86
Cn1c(=O)c2c([nH]c(=O)n2Cc2ccc(Cl)cc2Cl)n(C)c1=O | 102&103 | -16 | 108 | 87
COc1ccc(CNC(=O)c2nc(SCc3ccc(C)cc3)ncc2Cl)cc1 | 99 | -6 | 106 | 88
Cc1noc(/C=C/c2cccs2)c1S(=O)(=O)N1CCC(C(=O)NCc2ccc(Cl)cc2)CC1 | 103 | -2 | 103 | 85
O=C(Nc1nonc1-c1nc2ccccc2[nH]1)c1ccccc1Cl | 111 | -10 | 92 | 78
O=C1N(Cc2cc(F)cc(F)c2)c2ccccc2S(=O)(=O)N1Cc1ccccc1 | 102 | -15 | . | .
Cc1ccc(CN2CCN(C3CCN(S(=O)(=O)c4ccc(C)cc4)CC3)C(=O)C2=O)cc1 | 106&100 | -5 | 86 | 91
COc1cc(C(=O)OCC(=O)NC2C3CC4CC(C3)CC2C4)cc2c1OCCO2 (stereo unspecified) | . | -15 | 99 | 94
Nc1cc(-c2ccc(OC(F)(F)F)cc2)nn1-c1ccc(Cl)cc1 | 100 | -10 | 100 | 76
Cc1ccc(NC(=O)c2cc(CN3CCOCC3)on2)cc1Cl | 108 | . | 98 | 94
COc1ccc(NC(=O)c2cc(C)nc3c2c(C)nn3-c2ccc(C)cc2)cc1OC | 104 | . | 77 | 80
COc1ccc(C2Nc3ccccc3C(=O)N2c2ccc(F)cc2)cc1CSc1ccccn1 (stereo unspecified) | 99 | -13 | . | .
O=S(=O)(c1ccc(F)c(F)c1F)N1CCN(C(=S)NC2CC3CCC2C3)CC1 (stereo unspecified) | . | -11 | 94 | 96
O=C(CP(=O)(c1ccccc1)c1ccccc1)N1CCCCC1 | 104 | -8 | 109 | 93
COc1ccc(C2CC(c3ccc4ccccc4c3)=NN2C(=O)Cn2cnnc2C#N)cc1 (stereo unspecified) | . | -5 | 88 | 95
O=c1[nH]nc(SCc2ccc(Cl)cc2)c(=O)[nH]1 | 101 | -30 | 91 | 62
CCc1nn2c(=O)cc(COC(=O)c3ccccc3NC(=O)COc3ccccc3C)nc2s1 | 98 | . | 94 | 90
COCCNC(=O)C1CCCN1S(=O)(=O)c1cc(C(=O)OC)n(C)c1 (stereo unspecified) | 103 | -13 | . | .
O=c1[nH]c(-c2ccccc2)nc2c1sc(=S)n2Cc1ccccc1 | 108 | -10 | 80 | 87
O=c1[nH]nc2ccc(Sc3ccccc3)nn12 | 103 | -157 | . | .
NCCCOCc1ccco1 | . | 7 | 108 | 99
COc1ccc(OC)c(CCNC(=O)Cn2ncc3c(=O)oc4ccc(C)cc4c32)c1 | 98 | -22 | 99 | 89
O=C(c1cc2ccccc2oc1=O)N(Cc1cccc(Cl)c1)C1CCS(=O)(=O)C1 (stereo unspecified) | 100 | 13 | 116 | 95
CCOc1ccc(/C=C2\SC(=S)N(CCC(=O)NC3=NCCS3)C2=O)cc1 | 106 | -37 | . | .
CNC1c2cccc(OC)c2OCC1CO (stereo unspecified) | 109 | -3 | . | .
COc1ccc(CNC(=O)c2c3c(nc4ccccc24)C(=O)N(C2CCCCC2)C3)c(OC)c1 | 103&93 | -56&-49 | 113 | 85
c1csc(-c2nnc(SCc3cscn3)n2C2CC2)c1 | . | 1 | 107 | 85
CCOC(=O)/C(C#N)=C/c1ccc2c(c1)c1ccccc1n2CC | 128 | -12 | 110 | 93
CN(C(=O)c1cc2c([nH]c1=O)CC(C)(C)CC2=O)c1ccccc1 | 103 | -6 | . | .
CCCN(c1c(C)n(C)n(-c2ccccc2)c1=O)S(=O)(=O)c1ccc(C)cc1 | 101 | 3 | 111 | 97
Cc1c(NC(=O)c2cc3nc(-c4ccc5c(c4)OCO5)cc(C(F)(F)F)n3n2)c(=O)n(-c2ccccc2)n1C | 100 | -14 | . | .
S=C(NC1CCCC1)NN1CCOCC1 | 98 | -7 | 107 | 92
CC(O/N=C/c1ccc2c(c1)OCO2)C(=O)N1CCc2ccccc21 (stereo unspecified) | . | -2 | 98 | 88
COc1cc2[nH]c(=O)c(C(=O)NC3CCCC3)c(O)c2cc1OC | 104 | 6 | 96 | 95
CCN1CCN(Cc2ccc(NC(=O)Cc3noc4ccccc34)cc2)CC1 | 101 | . | 99 | 97
Cc1ccc(-c2csc(-n3sc4ccccc4c3=O)n2)cc1 | . | -35 | 108 | 88
CCOc1cccc(C2Nc3ccccc3-n3c(-c4ccccc4)c4c(=O)n(C)c(=O)n(C)c4c32)c1O (stereo unspecified) | 105 | 11 | . | .
CCS(=O)(=O)n1nc(C(=O)N2CCOCC2)nc1N | 97 | -9 | 99 | 96
Cc1ccc(NC(=O)CN2C(=O)CCc3cc(S(=O)(=O)N4CCOCC4)ccc32)cc1F | 96 | . | 95 | 85
CCOCCCNC(=O)c1cc(=O)[nH]c2ccc(S(=O)(=O)N3CCCC3)cc12 | 109 | -1 | 107 | 95

Additional records:
SMILES | GIV-Gai inh | HCMV NEC inh | Sa growth 42C | Sa growth 42C second temp
Cc1ccccc1N(C(=O)c1cccs1)c1nc2ccccc2s1 | . | -10 | 73 | 81
CCN1c2ccccc2-n2cccc2C12CCN(C(=O)Nc1ccccc1C(F)(F)F)CC2 | 99 | . | 86 | 93
O=C(OCc1cnc(Cl)s1)c1cccc(Cl)c1 | 101 | -16 | . | .
Clc1ccc(-c2cc(-c3ccccn3)on2)cc1 | 109 | -6 | 111 | 99
O=C(OCCNc1ncc(C(F)(F)F)cc1Cl)C1CCC1 | . | -7 | 99 | 84
O=C(Oc1ccccc1N1CCOCC1)c1cccs1 | 102 | -21 | 86 | 86
O=C(CCn1c(=O)c2cccn2c2cccnc21)N1CCN(c2cccc(C(F)(F)F)c2)CC1 | 99 | . | 89 | 76
CCOC(=O)C1CCN(c2ccc(-c3cccs3)nn2)CC1 | 97 | -40 | 106 | 84
O=C(NCc1cccs1)C1C2C=CC3(CN(CCCN4CCOCC4)C(=O)C13)O2 (stereo unspecified) | 109 | -14 | 105 | 90
Cc1nn(-c2ccccc2)c2sc(C(=O)N=Nc3[nH]c(N)c4ccccc34)cc12 | . | -30 | 79 | 94
O=C(O)c1cc2cc3ccc(Cl)cc3nc2o1 | 130 | -133 | . | .
Nc1nc(Cl)cc(Oc2ccc(Cl)cc2)n1 | . | 0 | 109 | 104
O=C(O)/C=C/C(=O)Nc1cn(-c2ccccc2)nc1-c1ccccc1 | . | -25 | 88 | 94
O=C(c1ccco1)N1CCN(C(=O)N2c3ccccc3Sc3ccccc32)CC1 | 100 | -5 | 89 | 94
CCOC(=O)c1cc(-c2ccc(OC)cc2)n(CCC(=O)Nc2ccccc2OC)c1C | 104 | . | 110 | 108

An excerpt from above in order of the Sa growth 42C second temp value, rising:
Compound	GIV-Gai inh	Sa growth 42C	Sa growth 42C second temp
CN1C(=O)CC(=O)N(C)c2cc(S(=O)(=O)N(C)Cc3ccccc3)ccc21	96	-1.7*	-1.1*
Cn1c(=O)c2c([nH]c(=O)n2Cc2ccc(Cl)cc2Cl)n(C)c1=O	102&103	108	87
CCc1nn2c(=O)cc(COC(=O)c3ccccc3NC(=O)COc3ccccc3C)nc2s1	98	94	90
S=C(NC1CCCC1)NN1CCOCC1	98	107	92
CCN1CCN(Cc2ccc(NC(=O)Cc3noc4ccccc34)cc2)CC1	101	99	97

Other entries follow:
SMILES | GIV-Gai inh | HCMV NEC inh | Sa growth 42C | Sa growth 42C second temp
COc1ccc(C2=NOC(C(=O)N3CCCc4ccccc43)C2)cc1 (stereo unspecified) | 104 | 3 | 100 | 99
O=C(/C=C/C=C/c1ccco1)c1ccccc1 | 116 | -4 | . | .
O=C(NCc1ccc(Cl)cc1)NCc1noc2ccccc12 | 100 | . | 111 | 81
NCC1CCCCC1CC(=O)O (stereo unspecified) | . | -47 | 89 | 89
CC(=O)Oc1ccc(N2C(=O)CCC2=O)cc1 | . | -13 | 94 | 85
O=C(OCCN1C(=O)c2cccc3c(N4CCCCC4)ccc(c23)C1=O)c1ccc([N+](=O)[O-])cc1 | 101 | 0 | . | .
COc1c[nH]n(C(C)(C)C)c(=O)c1=O | 104 | -1 | 75 | 59
CCOC(=O)C1=C(c2ccc(OC)cc2)NC(=O)NC1c1ccc(OC)cc1 (stereo unspecified) | 104 | . | 93 | 71
CCN(CC)C(=O)N(C)Cc1ccccc1 | 112 | 7 | 100 | 100
COc1ccc(NC(=O)c2ccc(-n3nnc4cccnc43)cc2)cc1OC | 110 | 0 | . | .
CCc1ccc(C2CC(=O)Nc3c2c(=O)n(C)c2ncnn32)cc1 (stereo unspecified) | 107 | 18 | 96 | 97
Fc1ccc(Nc2nc(Nc3ccc(F)cc3)nc(N3CCOCC3)n2)cc1 | 108 | -4 | 102 | 104
O=C(c1cnc2ccccc2c1Nc1cccc(Cl)c1)N1CCOCC1 | 100 | -5 | . | .
Cc1ccc(S(=O)(=O)N(C)c2ccccc2C(=O)N2CCCC2)cc1 | 100 | 0 | 98 | 96
CCOc1ccccc1C(=O)Nc1cc(-c2ccc(C)cc2)no1 | 102 | -9 | 103 | 85
CCc1nonc1NC(=O)c1oc2ccc(C)cc2c1C | 95 | -25 | 105 | 80
CCCNC(=O)Cn1c(C)cc(=O)n2nc(-c3ccc(Cl)cc3)nc12 | 100 | -26 | . | .
COc1ccc2c(c1)CCC1C2=NN(C(C)=O)C1c1ccccc1 (stereo unspecified) | 100 | . | 95 | 78
O=C(Nc1ccc2nc(SCC(=O)N3CCCc4ccccc43)sc2c1)c1ccccc1F | 100 | 2 | 122 | 87
COc1ccccc1NC(=O)c1ccc(-c2nc(COc3ccc(C)cc3)c(C)o2)cc1 | 106 | . | 107 | 97
CCCCN(CC)CCCNC(=O)CN1C(=O)CSc2ccc(S(=O)(=O)N3CCOCC3)cc21 | 105 | . | 121 | 94
COc1cccc(-n2cc(C(=O)NC(C)C)c3ccccc3c2=O)c1 | 109 | . | 89 | 93
CCN(CC)CCNC(=O)c1cc(C)nc2c(-c3ccc(C)cc3)cccc12 | 108 | -34 | . | .
O=C(CSc1nc2cc(Cl)ccc2o1)NC1CCCC1 | . | -31 | 115 | 88
COc1ccc(C2NC(=O)N(C)C3=C2C(=O)N(c2ccccc2)C3)cc1 (stereo unspecified) | 102 | -3 | 92 | 88
